Compound activity as filed in PubChem.
AF4-AF9 inh = inhibitors of human MLL-AF4/AF9 interaction; inhibition, % at 10 µM; AlphaScreen, biotin-AF4 peptide binding to FLAG-AF9; P42568; actives 0.47% (n = 350,000);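 active = every replicate reaching a set inhibition limit, whatever the replicate mean, cut at about 25% in these data; inconclusive = mean inhibition reaches that limit but some replicates miss it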;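 also: 0% = plate neutral control median and 100% = total signal loss; the record names both 10 and 1 µM as test concentration; the first replicate is given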
RanGTP-Imp inh = inhibitors of RanGTP-importin-beta interaction, primary screen, biochemical, FRET, CFP-Ran, YFP-importin-beta, homogeneous; cell-free CFP-Ran/YFP-importin-beta FRET ratio; inhibition, % (test concentration not listed); actives 1.1% (n = 300,000);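 active = most replicates above 15%; inconclusive = exactly half above 15%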;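 also: 0% = DMSO wells and 100% = Ran loaded with GDP instead of GTP; wells of about 40 µL received 100 nL stock; the first replicate is given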
FGF22 binding = binders of recombinant human FGF22 by thermal shift; SYPRO orange fluorescence; percent of sucrose octasulfate shift, DMSO zero; calls only at 9.99 µM; actives 1.5% (n = 340,000); AID 651658;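 active = melting point raised past a set limit in the mean and every replicate; inconclusive = no clear call; three in four hits are not shown here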
Target sequence (Q9HCT0 whole entry, looked up): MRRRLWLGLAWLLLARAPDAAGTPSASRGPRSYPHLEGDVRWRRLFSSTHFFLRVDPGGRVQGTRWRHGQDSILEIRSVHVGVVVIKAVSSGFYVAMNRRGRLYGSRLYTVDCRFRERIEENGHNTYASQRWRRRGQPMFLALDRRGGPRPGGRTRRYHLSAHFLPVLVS
Ecoli growth = E. coli growth inhibition. actives 0.21% (n = 330,000). Escherichia coli growth, OD600, 23 h; hits give low values. AID 1053175. OD600 absorbance (no concentration beside the values);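 active = OD600 absorbance below the run mean of sample wells minus 3.6 SD, in any replicate, cut at about 0.56 in these data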;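 also: stock transfer was 300 nL into about 60 µL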
Vif A3G = HIV-1 Vif–A3G interaction blockers – biochemical, TR-FRET, GST-Vif 1-94, biotin-A3G peptide, dose response retest, primary screen (AID 1117319). TR-FRET GST-Vif / biotin-A3G peptide binding; higher % means a stronger effect; test concentration not given here; strong numbers were not always called active. inhibition, %, or IC50 in µM where a hit was titrated. actives 0.57% (n = 260,000);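 active = above the screen mean plus three standard deviations and confirmed in dose response; inconclusive = results disagree or hit not tested in dose response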;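 also: Vif residues 1-94 fused to GST binding biotinylated APOBEC3G peptide 110-148; 0% = full assay without inhibitor and 100% = GST in place of GST-Vif; retest series ran down from 100 µM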
UCH37 DUB inh = human UCH37 deubiquitinating enzyme inhibition. Q9Y5K5. AID 588478. inhibition, % (concentration not given with the values). purified proteasome/UCH37, Ub-AMC cleavage fluorescence. actives 0.33% (n = 330,000);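 active = mean of two replicates above 20%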;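 also: 0% = compound-free wells with enzyme and 100% = wells lacking proteasome; stock transfer was 100 nL into about 20 µL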
Target sequence (Q9Y5K5 whole entry, looked up): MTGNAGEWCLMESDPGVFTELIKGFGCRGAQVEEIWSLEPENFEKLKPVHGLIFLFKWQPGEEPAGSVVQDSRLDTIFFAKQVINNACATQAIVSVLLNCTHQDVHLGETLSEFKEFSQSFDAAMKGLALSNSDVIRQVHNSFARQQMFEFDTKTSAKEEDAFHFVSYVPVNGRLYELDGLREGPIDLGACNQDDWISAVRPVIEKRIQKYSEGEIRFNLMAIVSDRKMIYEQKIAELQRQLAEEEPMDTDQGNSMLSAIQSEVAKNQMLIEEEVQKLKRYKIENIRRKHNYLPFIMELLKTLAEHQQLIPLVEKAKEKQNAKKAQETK
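Material: Human UCH37 enzyme supplied as purified proteasome complex | Schedule: 30 min preincubation with enzyme, 25 min cleavage at room temperature | Detection: AMC fluorescence 355/460 nm | Measure: % inhibition of Ub-AMC cleavage fluorescence | Controls: Wells without proteasome as full block, compound-free enzyme plus substrate as uninhibited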
HNF4A DNA FP = change in binding of human HNF4 alpha to DNA. actives 0.3% (n = 360,000). activity change, % at 10 µM. HNF4a-FITC DNA binding, fluorescence polarization, 1 h. P41235; in the data active = activity change above about 30%, passing the limit was not always enough;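 also: controls were the assay level and a saturating level of protein; the project sought stronger binding though the title names inhibitors; some compounds called inactive have numbers as strong as hits; positive values seem to mean higher polarization but the record does not say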
Target sequence (P41235 whole entry, looked up): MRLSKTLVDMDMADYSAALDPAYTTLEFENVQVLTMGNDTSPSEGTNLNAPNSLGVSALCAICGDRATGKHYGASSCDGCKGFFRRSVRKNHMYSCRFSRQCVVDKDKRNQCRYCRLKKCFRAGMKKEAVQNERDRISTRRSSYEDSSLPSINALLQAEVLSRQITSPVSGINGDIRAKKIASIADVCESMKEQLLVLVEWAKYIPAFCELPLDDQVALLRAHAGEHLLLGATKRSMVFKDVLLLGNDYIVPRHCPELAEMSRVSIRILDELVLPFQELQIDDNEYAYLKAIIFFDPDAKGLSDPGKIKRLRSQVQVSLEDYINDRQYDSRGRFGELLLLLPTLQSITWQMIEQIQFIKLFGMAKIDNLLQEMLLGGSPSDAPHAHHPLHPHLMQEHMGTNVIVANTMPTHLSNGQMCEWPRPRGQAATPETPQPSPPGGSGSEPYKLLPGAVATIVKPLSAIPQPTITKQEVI
An asterisk follows results filed as active; i = inactive; ? = inconclusive; nt = not tested or not shown; & = joins results of further samples.

item	smiles	AF4-AF9 inh	RanGTP-Imp inh	FGF22 binding	Ecoli growth	Vif A3G	UCH37 DUB inh	HNF4A DNA FP
1	NC(=O)CSc1ccc(S(=O)(=O)N2CCCCC2)cn1	-1.0	nt	i	0.7	6%	1.5	2.8
2	Cc1occc1C(=O)NCCCCNC(=O)c1ccoc1C	nt	-1.6	nt	0.73	-6%	1.4	3.8
3	NCCCC[C@H]1CN=C(N)N1CCC12CC3CC(CC(C3)C1)C2	5.0	2.3	i	nt	nt	1.5	1.5
4	O=[N+]([O-])c1ccc(-c2cnc(NO)nc2)cc1	nt	?	nt	0.59	nt	15	2.4
5	COc1cccc(NC(=O)CN2C(=O)NC(C)(CCC(C)C)C2=O)c1 (stereo not given)	-0.8	3.1	nt	0.65	-5%	0.8	-5.5
6	CCN1CCN(Cc2ccc(NC(=O)c3ccc(C)c(NC(=O)c4csc(-c5ccncc5)n4)c3)cc2C(F)(F)F)CC1	18	1.3	i	0.68	nt	-0.9	5.6
7	NS(=O)(=O)c1ccc(CNC(=O)C(c2ccccc2)c2ccccc2)cc1	-4.6	-2.8	i	0.64	-6%	4.7	-2.4
8	COc1ccc(CN2CCNC(=O)C2CC(=O)N(C)Cc2nccs2)cc1OC (stereo not given)	-2.5	5.1	i	0.7	nt	2.3	-1.1
9	Cc1ccc(C(=O)Nc2ccccc2C(=O)NC2CCCCC2)cc1S(=O)(=O)N1CCOCC1	11	1.8	i	0.64	18%&1%	1.4	3.0
10	COc1ccccc1NC(=O)CSc1ccc2nnc(-c3ccncc3)n2n1	3.2	1.8	i	0.71	9%	3.8	-1.2
11	O=C(CC(c1ccccc1)c1ccccc1)Nc1ccc(Cl)cn1	nt	4.1	nt	nt	-4%	34*	-0.6
12	CC1CCc2cc(F)ccc2N1C(=O)c1ccncc1 (stereo not given)	nt	-5.0	nt	0.69	nt	0.9	-2.6
13	O=C(NC1CCCC1)C(c1cccs1)N(C(=O)c1ccno1)c1ccccc1 (stereo not given)	nt	0.0	nt	0.64	-1%	3.5	-3.3
14	CCC(C)NC(=O)c1ccccc1NC(=O)CN1C(=O)c2ccccc2S1(=O)=O (stereo not given)	2.4	5.3	i	0.74	1%	6.0	5.1
15	CCOC(=O)C1=C(N)N(c2cc(S(=O)(=O)N3CCOCC3)ccc2Cl)C(=O)C1	-0.6	-1.0	i	0.67	-1%	2.8	1.3
16	CCOc1ccccc1C(=O)Nn1c(C2CCC2)nc2ccccc2c1=O	nt	3.6	nt	0.7	6%	6.0	-2.9
17	CCN1CCN(C(=O)C(C)Oc2ccc(S(=O)(=O)N3CCCC3)cc2C(N)=O)CC1 (stereo not given)	-1.1	nt	i	0.71	-8%	0.3	-1.3
18	COC(=O)C(C)Sc1ncnc2c1c(-c1ccccc1)cn2-c1ccc(OC)cc1 (stereo not given)	nt	-0.7	nt	0.66	nt	-0.2	-0.7
19	CCN(CC)C(=O)C(=O)c1cn(CC(=O)NCc2ccc3c(c2)OCO3)c2ccccc12	-0.9	-1.6	i	0.66	3%	4.6	0.6
20	CCc1ccc(OCC(=O)NC(=S)Nc2ccc(F)cc2)c(Br)c1	nt	-3.5	nt	0.7	4%	1.2	0.3
21	O=C(CC1CC2CCC1C2)N1CCN(S(=O)(=O)c2ccccc2[N+](=O)[O-])CC1 (stereo not given)	3.8	nt	i	0.71	7%	2.4	-1.8
22	Cc1ccnc2nc(C(=O)OCC(=O)N(CC(C)C)CC(C)C)nn12	0.3	-2.0	i	0.7	2%	-0.7	-1.8
23	NS(=O)(=O)c1ccc(-c2ccc(/C=N/Nc3ccc(C(=O)O)cc3)o2)cc1	4.6	8.2	i	nt	nt	nt	7.9
24	Cc1nc(Cl)sc1C(=O)Nc1cccc2ccccc12	nt	-0.9	nt	0.7	1%	-2.1	2.1
25	CCOCCn1c(CN2CCc3ccccc3C2)nc2c1c(=O)n(C)c(=O)n2C	nt	3.4	i	0.66	-8%	3.1	-2.3
26	Cc1ccc(NC(=O)Nc2cc(-c3ccccc3)nn2C)cc1Cl	-5.2	-0.2	i	0.64	31%	-6.9	-1.0
27	CC(Oc1ccccc1)C(=O)N1CCN(c2ccc(N3CCCCC3)nn2)CC1 (stereo not given)	4.1	-1.3	i	0.66	-1%	-102	1.3
28	Cc1nc([N+](=O)[O-])c(C(=O)OCc2ccccc2F)n1C	1.3	-1.2	i	0.7	-1%	2.2	-2.9
29	CCOC(=O)c1nc(-c2ccc(OC)c(OC)c2)cnc1C#N	-2.8	?	i	0.65	7%	-16	2.4
30	Cc1cccc(OCc2nnc(NC(=O)c3cccs3)s2)c1	nt	1.0	nt	0.67	?	4.6	-1.6
31	O=C(NC1CCCC1)c1ccc(Br)c(S(=O)(=O)N2CCCCC2)c1	-2.2	1.8	i	nt	nt	nt	1.2
32	Cc1ccc(NC(=O)CSCc2cc(=O)n3ccsc3n2)c(C)c1	-1.5	?	i	0.64	nt	0.7	1.7
33	O=C(Nc1ccc(S(=O)(=O)N2CCCC2)cc1)c1cccc(OC(F)F)c1	0.2	-2.3	i	0.61	-7%	-0.1	-2.0
34	O=C(NC1CCCC1)C1c2ccccc2OCC(=O)N1CCc1ccccc1 (stereo not given)	-3.6	nt	i	nt	nt	nt	0.9
35	COc1ccc2c(c1)N(C(=O)CN1C(=O)C3CCCCC3C1=O)C(C)(C)C=C2C (stereo not given)	nt	-1.2	nt	0.75	5%	-1.2	-2.5
36	COc1ccc2c(c1)CCCO[C@]21O[C@H](CCO)C[C@H](O)[C@H]1O	-3.0	nt	i	nt	nt	nt	2.7
37	COc1cccc(/C=C/c2nc3c(cnn3-c3ccccc3)c(=O)[nH]2)c1	-1.5	3.3	i	0.71	-5%	i	-1.6
38	COC(=O)c1cccc(NC(=O)c2cnccn2)c1	-3.6	1.4	i	0.65	nt	1.9	1.4
39	Cc1ccc(NC(=O)c2cnn(-c3ccccc3)c2NC(=O)c2ccco2)cc1	nt	0.2	nt	0.74	0%	-0.4	-0.2
40	CCc1ccccc1N(CC(=O)N1CCCC1)S(C)(=O)=O	-7.0	-0.3	i	0.68	-3%	0.9	2.6
41	CN(C)CCn1c2ccccc2c2nc3ccc([N+](=O)[O-])cc3cc21	-1.9	-4.0	i	0.64	6%	4.3	-7.4
42	Cc1cccc(NC(=O)C2CCN(c3ncnc4c3nc3n4CCCCC3)CC2)n1	-2.6	0.3	i	0.71	-11%	1.4	1.1
43	Nc1cc(=O)[nH]c(SCC(=O)N2CCCCC2)n1	-1.0	0.6	i	0.66	nt	-0.2	3.9
44	O=C(Nc1cc(Cl)ccc1Cl)N1CCCC1	-1.6	3.2	i	0.66	-3%	3.0	1.6
45	CCOC(=O)N1CCN(C(=O)COc2cccc3c2CCN(Cc2ccccc2C)C3=O)CC1	nt	-0.2	nt	0.7	nt	5.5	-2.1
46	FC(F)(F)c1ccccc1-c1ccc2nncn2c1	-0.2	nt	i	nt	nt	nt	0.0
47	CC1(c2ccccc2Cl)NC(=O)N(CC(=O)NCc2ccco2)C1=O (stereo not given)	-1.0	0.4	i	0.7	4%	4.4	0.9
48	CCn1ccnc1CN1CCN(CC(C)C)C(CCO)C1 (stereo not given)	2.1	2.2	i	0.66	-2%	-0.4	-3.5
49	CCOC(=O)C(=O)N(C)c1c(CC)nc2c(OCc3ccccc3C)cccn12	-0.3	nt	i	nt	nt	nt	0.1
50	CC(C)(C)c1nnc2sc(SCC(=O)c3cccs3)nn2c1=O	nt	-0.7	nt	0.75	3%	11	-0.1
51	CCCCCCN(C(=O)CCCCCN1C(=O)NC(c2ccccc2)C(C(=O)OCc2ccccc2)=C1C)C(C(=O)NCCCC)c1ccc(OCC(=O)OC)c(C(=O)OC)c1 (stereo not given)	-23	nt	i	nt	?	nt	nt
52	COc1ccc(/C=C/C(=O)NC2=NCCS2)cc1OC	-1.8	1.0	i	0.67	-10%	-225	4.5
53	COc1ccc(-c2n[nH]c(=S)n2-c2cc(OC)ccc2OC)cc1	-3.7	?	i	0.7	?	-0.9	4.7
54	COc1ccc(C)cc1S(=O)(=O)N(C)CC(=O)N1CCCCC1	-8.9	-6.0	i	0.64	-3%	1.6	-3.8
55	Cc1c(NS(=O)(=O)c2ccc(Cl)c(C(=O)OC(C)C(=O)NCc3ccco3)c2)c(=O)n(-c2ccccc2)n1C (stereo not given)	-1.9	-1.8	i	0.66	6%	1.1	-4.7
56	C[C@H](NC(=O)c1ccc(C(C)(C)C)cc1)C(=O)N1CCC2(CC1)NCCc1[nH]cnc12	3.1	7.6	i	0.63	nt	-0.7	-4.8

The listing continues.
item	smiles	AF4-AF9 inh	RanGTP-Imp inh	FGF22 binding	Ecoli growth	Vif A3G	UCH37 DUB inh	HNF4A DNA FP
57	COCCNc1oc(Cc2cccc3ccccc23)nc1C#N	3.8	6.6	i	0.69	nt	-1.0	5.9
58	O=C(/C=C/c1ccccc1)NC(=S)NNC(=O)Cc1cccs1	nt	1.4	nt	0.75	nt	7.0	0.4
59	CC(C)(C)c1ccc(CC(=O)N2CCC2(C)C(=O)NS(=O)(=O)c2ccccc2)cc1 (stereo not given)	-3.7	nt	i	nt	nt	nt	1.8
60	CC(C)N(Cc1ccccc1)C(=O)COC(=O)c1ccc2ncsc2c1	-0.4	nt	i	0.72	-11%	3.4	0.4
61	CN1c2ccc([N+](=O)[O-])cc2N(C)C1(C)c1ccccc1 (stereo not given)	10	2.2	i	0.7	-8%	3.5	6.7
62	Cc1ccc(-n2nnnc2SC(C)C(=O)NCC(=O)Nc2ccc(F)c(F)c2F)c(C)c1 (stereo not given)	nt	?	nt	0.68	nt	3.8	-1.9
63	CCOc1cc(-c2nc3cc(C)ccn3c2NCC2CCCO2)ccc1O (stereo not given)	nt	3.3	nt	0.7	3%	-283	5.7
64	COc1cccc2[nH]c(C(=O)NC(C)c3ccccc3)cc12 (stereo not given)	-2.2	-0.1	i	0.66	nt	-25	-5.4
65	CC(=O)Nc1cccc(C(=O)OCC(=O)NCc2ccc(F)cc2)c1	-3.2	2.7	i	0.71	-10%	1.2	-0.5
66	CC1(Cc2cccc(C(F)(F)F)c2)C(=O)Nc2c(Cl)cccc21 (stereo not given)	4.0	nt	i	nt	nt	nt	4.4
67	O=C(C1CCCO1)N1CCN(S(=O)(=O)c2ccc(Cl)cc2)CC1 (stereo not given)	-1.2	-1.8	i	0.71	nt	0.8	2.7
68	CCOC(=O)c1[nH]c2ccc(OC)cc2c1NC(=O)CN1CCN(c2ccccn2)CC1	nt	1.1	nt	0.72	8%	-9.6	nt
69	COc1ccc(C(=O)NNC(=O)CCc2ccccc2OC)cc1	-3.7	6.3	i	nt	nt	nt	0.2
70	CSCCC(NC(=O)/C(=C\c1ccco1)NC(=O)c1ccco1)C(=O)O (stereo not given)	-2.3	0.7	i	0.65	nt	6.5	-3.9
71	CCN1CCC(O)(C(C(=O)OC)c2ccccc2)CC1 (stereo not given)	-2.6	nt	i	0.71	-7%	2.9	-1.2
72	NC(=O)c1ccsc1NC(=O)c1coc2ccccc2c1=O	-10.0	-0.8	i	0.71	10%	2.8	-2.0
73	COc1ccc(/C=N/NC(=S)NC2CCS(=O)(=O)C2)cc1OC (stereo not given)	nt	3.9	nt	nt	2%	nt	8.6
74	CN1CCC(N(C)C(=O)c2cc(S(=O)(=O)N(C)c3ccccc3)ccc2Cl)CC1	-0.3	nt	i	0.71	nt	5.2	3.3

Printed as active in UCH37 DUB inh, among the entries above:
| nr | smiles | AF4-AF9 inh | RanGTP-Imp inh | FGF22 binding | Vif A3G | UCH37 DUB inh | HNF4A DNA FP |
| --- | --- | --- | --- | --- | --- | --- | --- |
| 11 | O=C(CC(c1ccccc1)c1ccccc1)Nc1ccc(Cl)cn1 | nt | 4.1 | nt | -4% | 34* | -0.6 |

The list is partial, so the mix of outcomes need not match the whole.
